# Rce1 inhib: yeast Ras-converting enzyme inhibition. AID 2563. Q03530. calls only. 0.27% of 290,000 active. yeast membranes, quenched prenylated peptide cleavage fluorescence;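 active = fall in fluorescence gain of 50% or more versus controls, with final raw signal at or below 3038400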;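 also: plate controls were neutral control wells for no effect and wells lacking membranes for full effect; tested at 10 µM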
# Target sequence (Q03530 whole entry, looked up): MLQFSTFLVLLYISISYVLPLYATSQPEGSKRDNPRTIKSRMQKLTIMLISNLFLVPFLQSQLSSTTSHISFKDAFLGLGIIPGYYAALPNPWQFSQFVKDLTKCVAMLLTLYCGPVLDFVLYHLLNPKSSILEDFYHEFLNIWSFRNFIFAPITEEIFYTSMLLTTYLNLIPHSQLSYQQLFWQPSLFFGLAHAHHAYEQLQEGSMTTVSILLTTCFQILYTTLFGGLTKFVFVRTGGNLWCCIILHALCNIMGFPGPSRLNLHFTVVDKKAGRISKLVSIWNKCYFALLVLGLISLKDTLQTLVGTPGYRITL
# UUG fidelity: yeast start codon fidelity modulation; 0.13% of 350,000 active; S. cerevisiae UUG-firefly luciferase reporter, luminescence/redox ratio; activity score, % at 18.7 µM;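 active = replicate mean at a twofold rise or more, about +100% in these data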;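 also: firefly luciferase made from a UUG start codon reports start codon fidelity; reporter light over untreated wells divided by growth signal over untreated wells; some hits fall short of that in this replicate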
# eIF4H FP inh: inhibitors of RNA binding by human eIF4H; Q15056; eIF4H fluorescence polarization binding assay; inhibition, % at 35 µM; 0.94% of 290,000 active;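 active = 50% or more with normal probe brightness, or confirmed in later tests; about a fifth of its hits are not listed in these tables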;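 also: calls also rest on retests at 20 µM and on dose response follow-up; 0% = protein and probe with vehicle and 100% = probe without protein; strong numbers were not always called active; many hits fall short of the cut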
# HIV Env fusion: inhibitors of HIV Env-mediated cell fusion; HeLa-JRFL Env/CEM21 cell fusion, luciferase; inhibition, % at 12.3 µM; 1.1% of 360,000 active;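 active = mean replicate inhibition score of at least 50 and every replicate individually at or above 50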;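 also: 0% = plate neutral controls and 100% = maraviroc near 300 nM; one replicate is shown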
# PABP polyA inh: blocks human PABP binding to poly(A) RNA. fluorescence polarization. inhibition, % at 35 µM. 1% of 290,000 active;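 active = 50% or more with normal probe brightness, or confirmed in later tests; about a fifth of its hits are not listed in these tables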;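 also: calls also rest on retests at 20 µM and on dose response follow-up; controls were probe without protein and protein plus probe with vehicle; some compounds called inactive have numbers as strong as hits; many hits fall short of the cut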
# Target sequence (P11940 whole entry, looked up): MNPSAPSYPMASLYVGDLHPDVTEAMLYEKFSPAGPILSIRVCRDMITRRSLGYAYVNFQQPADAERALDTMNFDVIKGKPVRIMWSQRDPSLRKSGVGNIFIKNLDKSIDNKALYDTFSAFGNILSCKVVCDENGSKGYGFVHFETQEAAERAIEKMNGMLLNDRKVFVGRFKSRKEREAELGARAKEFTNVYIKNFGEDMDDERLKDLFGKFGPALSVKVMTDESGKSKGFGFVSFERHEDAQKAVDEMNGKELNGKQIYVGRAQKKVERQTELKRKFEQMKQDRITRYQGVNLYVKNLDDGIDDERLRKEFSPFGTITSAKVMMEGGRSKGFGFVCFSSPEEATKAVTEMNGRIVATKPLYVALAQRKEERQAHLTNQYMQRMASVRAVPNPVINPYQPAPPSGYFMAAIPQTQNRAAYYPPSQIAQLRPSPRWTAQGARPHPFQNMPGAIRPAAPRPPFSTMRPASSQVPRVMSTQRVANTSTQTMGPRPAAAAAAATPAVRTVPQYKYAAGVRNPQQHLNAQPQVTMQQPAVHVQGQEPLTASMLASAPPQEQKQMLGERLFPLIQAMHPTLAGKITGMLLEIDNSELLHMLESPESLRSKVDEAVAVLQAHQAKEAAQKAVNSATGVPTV
# CSC inhib: cancer stem cell inhibition; cancer stem cell-like cells viability, luminescence; inhibition, % at 7.5 µM; 1.1% of 300,000 active; AID 2717;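 active = mean at 75% or more and at least half the replicates too; tested in HMLE shEcad cells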;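 also: 0% = median of negative and 100% = median of positive control wells; the first replicate is given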
# MT1-MMP act inh: inhibitors of human MT1-MMP activation | P50281 | GFP/RFP ratio change, % at 20 µM | AID 651647 | 0.061% of 360,000 active | HT1080 RFP-PRO-GFP cells, GFP/RFP ratio fluorescence, overnight; percent of plate control window, DMSO zero;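 active = GFP/RFP ratio change of at least 30% with cell ATP level not reduced by more than half and red fluorescence within 50% of control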; also: strong numbers were not always called active
#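 Assay system: HT1080 cells carrying an RFP-PRO-GFP reporter | Dosing: Single dose of 20 µM compound, 1% DMSO final | Incubation: Cells overnight before dosing, compound overnight, 37 °C, 5% CO2 | Evaluation: GFP/RFP fluorescence ratio | Control set: DMSO and RFP-L50D-GFP cell wells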
# eIF4H FP inh retest: second read-out of eIF4H FP inh, no call of its own (marks repeat the call); inhibition, %; compound at 20 µM; confirmation average;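 mean of two retest wells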
# PABP polyA inh retest: second read-out of PABP polyA inh, no call of its own (marks repeat the call); inhibition, %; compound at 20 µM; confirmation repeats;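 mean of two retest wells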
# MT1-MMP act inh RFP: second read-out of MT1-MMP act inh, no call of its own (marks repeat the call); RFP signal change, %; measured here: RFP expression control read;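 0 = vehicle wells; hits needed this value within 50% of zero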
# * marks the source's active call; other numbers are inactive results; i = inactive; nt = not tested or not shown; + = active, no number; & = joins results of further samples.
SMILES,Rce1 inhib,UUG fidelity,eIF4H FP inh,HIV Env fusion,PABP polyA inh,CSC inhib,MT1-MMP act inh,MT1-MMP act inh RFP,others
COc1cc(OC)c(OC)cc1CNCCNC(=O)c1nonc1N,i,-15,-12,-50,2,-10,0,-1,
CCCCC[C@@H]1C=C(C(=O)OCC)[C@H](c2ccccc2)N1S(=O)(=O)c1ccc(C)cc1,nt,-18,nt,-5,nt,nt,-14,-27,
CCOC(=O)c1c(C)[nH]c(C(=O)Nc2ccc(C)c(Cl)c2)c1C,i,nt,-2,nt,-2,2,nt,nt,
CCCNC(=O)Nc1ccc(NC(C)=O)cc1,nt,nt,-3,-7,-2,-7,-1,4,
COc1ccc(NC(=O)CSc2nc3sc(C)c(C)c3c(=O)n2Cc2ccco2)cc1,i,-10,2,nt,3,nt,-1,-1,
COc1ccc(CCC(=O)Nc2ccc(N3CCOCC3)cc2)cc1,i,-14,0,0,3,-14,0,4,
Cc1ccc(C(=O)C(C)[n+]2cccc(C(N)=O)c2)cc1 (stereo unspecified),i,-12,-4,-1,-89,-14,0,3,
COc1cc(/C=N/N2C(=O)CSC2=S)ccc1O,i,-7,-7,-24,5,3,30,67,
COc1ccc(OCC(=O)Nc2c(C)ccc3nsnc23)cc1,i,-7,-21,5,6,-7,-1,0,
O=C(NCCNS(=O)(=O)c1ccccc1)c1ccc([N+](=O)[O-])cc1,i,4,12,10,-6,nt,2,-2,
COc1ccc(CNC(=O)CCCn2c(=S)[nH]c3cc4c(cc3c2=O)OCO4)cc1,i,-3,4,-4,3,-7,2,4,
Cc1nc2ccccn2c1-c1csc(NCc2ccco2)n1,i,-16,1,8,20,-15,11,-5,
CCOC(=O)C(NC(=O)c1ccccc1)(Nc1cccc(C)n1)C(F)(F)F (stereo unspecified),i,-9,-3,5,-2,nt,1,2,
CCOC(=O)c1c(NC(=O)C2CCCCC2)sc2c1CCN(C(C)C)C2,i,6,6,8,-5,-1,-2,0,
CC1CN(C(=O)COC(=O)c2cccs2)CC(C)O1 (stereo unspecified),i,-8,-5,nt,6,-6,3,1,
CN1CCCCCC1=NC1=C(C#N)CCCC1,i,-18,-4,nt,-9,-5,4,-4,
CC(C)C(=O)NC(NC(=S)NC1CCS(=O)(=O)C1)C(Cl)(Cl)Cl (stereo unspecified),i,0,1,nt,2,-9,-1,5,
CC(=O)C1=C(NC(=O)c2ccc(F)cc2)CC2C1C2(C)C (stereo unspecified),i,-26,3,-43,-3,3,1,-4,
O=C(C1CC1)N1CCc2cc(Br)cc(S(=O)(=O)N3CCN(c4ccccn4)CC3)c21,i,4,1,0,0,-10,-6,0,
Cc1cc(C)nc(SCC(=O)c2ccc(F)cc2)n1,nt,-11,0,9,-10,-11,-1,1,
COC(=O)N/N=C/c1cc(OC)c(O)c([N+](=O)[O-])c1,i,nt,6,11,-6,-5,9,3,
CCOC(=O)C1Nc2ccc(C)cc2C2C=CCC12 (stereo unspecified),i,0,nt,5,nt,4,-2,7,
O=C(c1nnc(Cc2ccc(Cl)cc2)o1)N1CCOCC1,i,-8,0,-4,-1,-9,0,3,
COC(=O)c1ccc(NC(=O)CSc2nnc(Cc3cccn3C)n2-c2ccc(F)cc2)cc1,i,-16,-7,-20,-7,-4,4,2,
Cn1c(Br)nc2c1c(=O)n(CC(O)COc1ccccc1)c(=O)n2C (stereo unspecified),i,4,1,nt,0,7,-1,-2,
# (further entries)
SMILES,Rce1 inhib,UUG fidelity,eIF4H FP inh,HIV Env fusion,PABP polyA inh,CSC inhib,MT1-MMP act inh,MT1-MMP act inh RFP,others
N#CCc1nn2c3c(cnc2c1C#N)C(=O)CCC3,i,-2,20,6,7,8,-11,1,
CCCCCn1cnnc1SCC(=O)c1c(N)n(C2CC2)c(=O)[nH]c1=O,nt,-21,nt,0,nt,nt,1,1,
O=[N+]([O-])c1ccc(Cl)c(S(=O)(=O)n2ccnc2)c1,i,-3,10,14,1,12,7,3,
Cc1ccc(C(=O)Nc2cccc(C(=O)N/N=C/c3ccc(F)cc3)c2)cc1,nt,-17,-13,10,1,7,4,0,
Cc1cccc2c(N=NC(=O)C(C)n3cnc4ccccc4c3=O)c(O)[nH]c12 (stereo unspecified),i,nt,nt,6,nt,-17,0,1,
Nc1nc2c(ncn2COC(CO)CO)c(=O)[nH]1,+,5,0,2,0,-2,-1,2,
C/C(=N\NC(=O)c1ccc(Cn2cc(Br)cn2)o1)c1cccc(NC(=O)C(C)(C)C)c1,i,-4,0,-2,-10,-3,-1,2,
O=C(CSCc1ccc(Br)cc1)N1CCCC1,i,nt,2,1,-6,-12,2,6,
CC(=O)NS(=O)(=O)c1ccc(N)cc1,i,-22&-8,-7,5,-9,-10&4,2&4,2&4,
O=S(=O)(c1ccccc1)c1nc(-c2ccccc2)oc1NCCCN1CCOCC1,i,-10,-4,-3,-1,-5,2,4,
CCCNC(=O)COC(=O)CCC(=O)c1ccc(F)cc1,i,-17,-4,-34,11,-1,3,-2,
CC(C)C(NC(=O)C(NC(=O)C1OC2OC(C)(C)OC2C2OC(C)(C)OC12)C(C)C)C(=O)O (stereo unspecified),i,nt,-9,5,-1,-1,1,2,
Cc1cc(C)c(S(=O)(=O)Nc2cccc(-n3cnnn3)c2)c(C)c1,i,-7,-2,4,-4,2,3,-9,
O=C(C(c1ccccc1)c1ccccc1)N1CCN(CCN2C(=O)c3cccc4cccc(c34)C2=O)CC1,i,nt,2,-23,-2,73,-2,3,
COC(=O)c1sccc1-c1ccc(/C=N/OCc2c(Cl)cccc2Cl)o1,i,-15,4,-12,-5,3,-2,1,
CCC1C(=O)N=C(SCC(=O)Nc2ccc(C)cc2)N(c2ccccc2)C1=O (stereo unspecified),i,-3,-8,1,-5,nt,3,1,
Cc1ncc(CN2CCC(CO)(CCc3ccccc3)CC2)s1,i,-12,11,15,21,1,1,1,
CSCC[C@H](NC(=O)c1nn(C)c(=O)c2ccccc12)c1nc2ccccc2[nH]1,i,-11,11,nt,0,0,-6,-1,
c1csc(CCNc2ncnc3sc4c(c23)CCC4)c1,i,-15,-5,37,-8,11,1,-28,
COc1ccc(C2(O)CCN(CC(=O)Nc3nc(-c4ccccc4)cs3)CC2)cc1,i,-13,-1,4,81,-6,2,-18,eIF4H FP inh retest=43;PABP polyA inh retest=37
O=C(c1cc(Cl)c(=O)n(Cc2ccccc2)c1)N1CCOCC1,i,9,-8,-8,-2,8,-5,-1,
Cc1ccc(/C=N/Nc2cccc(C(=O)O)c2)s1,i,-47,41,40,7,nt,-3,2,
CC(=O)c1sc(NC(=O)C2CSC3(C)CCC(=O)N23)nc1-c1ccccc1 (stereo unspecified),i,-11,nt,-10,nt,-7,-2,-3,
Cc1ccc(NC(=O)CN2C(=O)NC3(CCCC3)C2=O)cc1S(=O)(=O)N1CCCCC1,nt,1,nt,-4,nt,-12,4,0,
CC(=O)Nc1cccc(C(=O)OCC(=O)Nc2nnc(-c3ccccc3)o2)c1,i,-30,nt,-6,nt,-2,2,2,

# Of the compounds above, 2 have a cyano group:
SMILES,Rce1 inhib,UUG fidelity,eIF4H FP inh,HIV Env fusion,PABP polyA inh,CSC inhib,MT1-MMP act inh,MT1-MMP act inh RFP,others
CN1CCCCCC1=NC1=C(C#N)CCCC1,i,-18,-4,nt,-9,-5,4,-4,
N#CCc1nn2c3c(cnc2c1C#N)C(=O)CCC3,i,-2,20,6,7,8,-11,1,

# Back to the main list, starting four compounds before the break.
SMILES,Rce1 inhib,UUG fidelity,eIF4H FP inh,HIV Env fusion,PABP polyA inh,CSC inhib,MT1-MMP act inh,MT1-MMP act inh RFP,others
Cc1ccc(/C=N/Nc2cccc(C(=O)O)c2)s1,i,-47,41,40,7,nt,-3,2,
CC(=O)c1sc(NC(=O)C2CSC3(C)CCC(=O)N23)nc1-c1ccccc1 (stereo unspecified),i,-11,nt,-10,nt,-7,-2,-3,
Cc1ccc(NC(=O)CN2C(=O)NC3(CCCC3)C2=O)cc1S(=O)(=O)N1CCCCC1,nt,1,nt,-4,nt,-12,4,0,
CC(=O)Nc1cccc(C(=O)OCC(=O)Nc2nnc(-c3ccccc3)o2)c1,i,-30,nt,-6,nt,-2,2,2,
O=C(CCCn1c(=S)[nH]c2ccsc2c1=O)NCCc1ccccc1,i,-14,0,-5,5,-19,2,-1,
C=CCN(Cc1nc(-c2ccccc2)no1)C(=O)c1ccoc1C,i,-7,0,-2,9,-3,1,0,
CN1C(=O)c2ccc(N(C)C)cc2C1=O,i,-2,25,nt,11,3,nt,nt,
CCN(CC)C(=O)CN1CCC(n2c(C)nc3cc(C(F)(F)F)ccc32)CC1,i,nt,1,-10,14,-15,-7,2,
Cc1ccc(C)c(NC(=O)c2cnc3n(c2=O)CCS3)c1,i,nt,-12,-15,-12,-3,3,1,
CCOC(=O)N1CCN(C(=O)c2ccc(-n3c(C)ccc3C)cc2)CC1,i,-12,-8,nt,22,16,-3,3,
C=CCOc1ccc(C2/C(=C(\O)c3c(C)[nH]c(C(=O)OC)c3C)C(=O)C(=O)N2CCN(C)C)cc1 (stereo unspecified),i,3,5,nt,6,11,-2,4,
O=C(O)C1CSC(c2coc3ccccc3c2=O)N1 (stereo unspecified),i,nt,11,1,-20,1,-1,4,
COC(=O)c1cc(OC)c(OC)cc1NC(=O)CCc1ccc(C)o1,i,1,-8,nt,-16,nt,2,-1,
O=C(CSc1nnc(NC2CC2)s1)c1ccc[nH]1,nt,nt,nt,-20,nt,-17,0,5,
Cc1cccc(-n2c(SCCC(=O)O)nnc2-c2cccs2)c1C,i,-14,-3,nt,8,-7,1,2,
CCCc1nnc(SCC(=O)N2CCCC(C)C2)n1CC1CCCO1 (stereo unspecified),i,-15,-9,nt,-3,10,-6,0,
O=C(COC(=O)c1ccccc1NCCO)NCC1CCCCC1,nt,-32,nt,-7,nt,-10,0,2,
CN1CCc2c1nc1ccccc1c2N (tested in a mixture with another compound),i,-2,-6,-24,1,11,-3,6,
C=CCn1c(SCc2csc(C)n2)nc2scc(-c3ccc(C)o3)c2c1=O,i,nt,5,nt,6,-3,-13,-10,
Cc1cc2ccccc2n2c(SCC(=O)N3CCOCC3)nnc12,i,-6,-20,13,-5,-3,7,3,

# In the list so far, these have a thiophene ring, fused or not:
SMILES,Rce1 inhib,UUG fidelity,eIF4H FP inh,HIV Env fusion,PABP polyA inh,CSC inhib,MT1-MMP act inh,MT1-MMP act inh RFP,others
COc1ccc(NC(=O)CSc2nc3sc(C)c(C)c3c(=O)n2Cc2ccco2)cc1,i,-10,2,nt,3,nt,-1,-1,
CCOC(=O)c1c(NC(=O)C2CCCCC2)sc2c1CCN(C(C)C)C2,i,6,6,8,-5,-1,-2,0,
CC1CN(C(=O)COC(=O)c2cccs2)CC(C)O1 (stereo unspecified),i,-8,-5,nt,6,-6,3,1,
COC(=O)c1sccc1-c1ccc(/C=N/OCc2c(Cl)cccc2Cl)o1,i,-15,4,-12,-5,3,-2,1,
c1csc(CCNc2ncnc3sc4c(c23)CCC4)c1,i,-15,-5,37,-8,11,1,-28,
Cc1ccc(/C=N/Nc2cccc(C(=O)O)c2)s1,i,-47,41,40,7,nt,-3,2,
O=C(CCCn1c(=S)[nH]c2ccsc2c1=O)NCCc1ccccc1,i,-14,0,-5,5,-19,2,-1,
Cc1cccc(-n2c(SCCC(=O)O)nnc2-c2cccs2)c1C,i,-14,-3,nt,8,-7,1,2,
C=CCn1c(SCc2csc(C)n2)nc2scc(-c3ccc(C)o3)c2c1=O,i,nt,5,nt,6,-3,-13,-10,
